Screens from PubChem BioAssay.
BJeLR viability – BJeLR cell viability loss; AID 1554; inhibition, % (test concentration not listed); 300,000 compounds, 0.17% hits; BJeLR (HRASV12) viability, CellTiter-Glo ATP luminescence, 48 h; reference of the scale not given here;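 active = replicate mean above 50%; inconclusive = above 50% but judged a plate artefact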;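 also: 50 nL library stock added to about 25 µL; numbers are from one replicate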
RN4220 kill – kills Staphylococcus aureus RN4220; S. aureus RN4220 growth, OD600, 16 h; inhibition, % (no concentration beside the values); 330,000 compounds, 0.33% hits;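 active = z-score of -3 or lower and OD600 up to 0.18 on both plates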;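 also: plate controls were untreated cells for no effect and reference antibiotic for full effect; stock transfer was 100 nL into about 80 µL; one replicate is shown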
Sa ugtP lethal – kills S. aureus RN4220 lacking UgtP | S. aureus RN4220 ugtP deletion, OD600 growth, 16 h; some inactives read as strong as hits | growth inhibition, % (no concentration beside the values) | 330,000 compounds, 0.54% hits;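 active = z-score under -3 and OD600 up to 0.15 on both plates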;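 also: plate controls were untreated wells for no effect and antibiotic for full effect; wells of about 80 µL received 100 nL stock; the first replicate is given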
PrP 5UTR inh – inhibition of PrP 5' UTR reporter expression; cell-based PrP 5' UTR mRNA reporter, plate reader; inhibition, % (concentration not given with the values); 340,000 compounds, 0.35% hits; AID 488862;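 active = every replicate at 50% or more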;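 also: 0 = median of the neutral control wells; tested in H4 reporter cells; numbers are from one replicate; inactives centre near -14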
Bead autofluor – flagged as autofluorescent in microsphere protease counterscreen; compound autofluorescence counterscreen, microsphere flow cytometry; active compounds read high; fluorescence intensity (no concentration beside the values); 360,000 compounds, 3.1% hits;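 active = at least 3 SD above the mean of all compounds, about 16000 in these data; inconclusive = too few beads counted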;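 also: 100 nL of 1 mM stock went into each well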
Mtb hypoxia rep – reduces hypoxia-regulated biosensor signal in M. tuberculosis; M. tuberculosis hypoxia-regulated fluorescent reporter, fluorescence; fluorescence inhibition, % (test concentration not listed); 300,000 compounds, 0.1% hits;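 active = 35 to 45% if threefold the growth effect, above 45% if 1.5-fold the growth effect; inactive = the rest, general growth blockers included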;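 also: wells of about 50 µL received 100 nL stock; 0% = vehicle wells and 100% = reference inhibitor wells; whole bacteria with a GFP reporter of the hypoxia response; strong numbers were not always called active; many hits fall short of the cut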
Mtb hypoxia rep growth – recorded beside Mtb hypoxia rep, whose call it bears; growth inhibition, %; measured here: M. tuberculosis growth (absorbance);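 0% = vehicle and 100% = reference antibiotic; read after six days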
* hit, by the source's call; ? = inconclusive; · = no result given.

SMILES	BJeLR viability	RN4220 kill	Sa ugtP lethal	PrP 5UTR inh	Bead autofluor	Mtb hypoxia rep	Mtb hypoxia rep growth
COc1cc(OC)cc(-c2c(C#Cc3ccsc3)c3cc(-c4ccc(CN5CCOCC5)cc4)ccc3n2C)c1	·	3.6	0	-18	2903	20	16
CCn1c(C)nc2cc(C(=O)NNC(=S)Nc3ccc(F)cc3)ccc21	-4	4.1	3	-29	3975	-4	2
COc1ccc(N2C(=O)C(O)C2c2ccc(C)cc2)cc1 (stereo not drawn)	-4	0.7	4	-16	3707	-1	2
O=C(C[n+]1cccc(CNC(=O)c2ccc(OC(F)F)cc2)c1)Nc1cc(C(F)(F)F)ccc1Cl	9	-2.3	-4	-19	2462	13	15
CCOC(=O)c1ccc(S(=O)(=O)NNc2ccc(C(F)(F)F)cn2)cc1	·	3.2	1	-4	3112	5	-3
CCN(CC(=O)NCc1ccc(F)cc1)C(=O)c1ccc(Cl)cc1	-8	0.0	4	-12	3876	4	1
CCOC(=O)Cn1c(=O)c(F)cn(Cc2ccc(OC)c([N+](=O)[O-])c2)c1=O	0	-1.3	5	-35	3577	8	0
CCCC(=O)Nc1ccc(S(=O)(=O)N2CCCC2)cc1	10	0.2	-1	2	8948	1	-5
Cc1nc(-c2ccc(F)cc2)c(CC(=O)N(C)CC(=O)Nc2ccccc2Cl)s1	-3	·	·	-11	?	·	·
Cc1[nH]c(C)c(S(=O)(=O)N2CCN(c3ccccc3F)CC2)c1C(=O)N1CCCC1	-3	-1.5	1	7	5262	-2	8
Cc1csc(SCC(=O)Nc2cccc(S(=O)(=O)N3CCOCC3)c2)n1	-4	1.9	0	-12	4434	0	-5
O=S(=O)(c1ccc(F)cc1)n1ccc2cccnc21	-2	9.3	-8	-19	4451	19	12
O=C(Nc1cccc(C(=O)O)c1)/C(=C/c1ccc2c(c1)OCO2)NC(=O)c1cccc(Br)c1	5	4.8	8	-20	?	4	-1
COC(=O)C1C2c3ccccc3OC1(C)N=c1s/c(=C/c3cn(C)nc3C)c(=O)n12 (stereo not drawn)	-4	·	·	0	3295	·	·
Cc1cccc(-c2nc(CS(=O)CC(=O)NC3CCCCC3)c(C)o2)c1 (stereo not drawn)	3	1.5	5	-8	5183	7	11
CCOC(=O)C(C)n1cnc2c1c(=O)[nH]c(=O)n2C (stereo not drawn)	-2	1.0	-4	3	5475	-4	-4
O=C(CCCn1c(=O)oc2ccccc21)N1CCN(c2ccc(F)cc2)CC1	-2	3.9	2	5	4736	0	4
CC(C)Oc1cccc(C(=O)C2CCCN(Cc3cccn3-c3ccccn3)C2)c1 (stereo not drawn)	13	-3.7	11	-19	4445	7	19
CC(=O)NCCc1ccc(S(=O)(=O)Nc2cccnc2)cc1	-14	8.0	4	-16	11367	10	5
CC12CN3CCN(C1)CC(C)(C3)C2=NN	0	2.9	6	-21	5617	3	2
CCOc1ccccc1N(C)S(=O)(=O)c1ccc2c(c1)CC(C)N2C(=O)C1CC1 (stereo not drawn)	-6	1.1	-8	-12	·	-4	0
COc1ccc(N2CCN(CCc3ccncc3)CC2)cc1	-4	1.0	0	-15	6325	-5	-1
COc1cccc(CNC(=O)CSc2nc3ccc(C)cc3[nH]2)c1	5	-1.0	-1	-24	3039	2	-1
COc1cccc(COC(=O)C2CC(=O)N(Cc3ccco3)C2)c1OC (stereo not drawn)	-1	4.8	12	-10	4728	-1	-5
CCOC(=O)c1ccc2c(c1)nc(COc1ccc3ccccc3c1)n2CC	-1	35	-4	-33	12268	7	1
COc1ccccc1NC(=S)N1CCOCC1	-5	1.7	2	-9	2449	·	·
Cc1csc(SC(C)C(=O)NCC2CCCO2)n1 (stereo not drawn)	4	2.8	2	4	·	-8	3
CCOP(=O)(OCC)c1nc(-c2cccc3ccccc23)oc1NCc1ccc(OC)cc1	1	-1.4	-3	-18	5422	3	9
COc1cc(C)c(Cl)cc1S(=O)(=O)NCCCN1CCOCC1	-2	-1.8	-2	-13	10691	1	12
CCC(C(=O)Nc1ccc(S(=O)(=O)N(C)C2CCN(C)CC2)cc1)c1ccccc1 (stereo not drawn)	·	5.2	11	-18	2849	-6	1
COc1ccc(-c2ccc(SCC(=O)N3CC(=O)Nc4ccccc43)nn2)cc1	-7	2.5	78	-40	3603	10	11
CN(CC(=O)NCc1ccco1)C(=O)C1CC(=O)N(c2ccc3c(c2)OCCO3)C1 (stereo not drawn)	·	2.7	6	3	3098	-1	-4
O=C(NNC1CC(=O)N(c2ccc(Br)cc2)C1=O)c1cccnc1 (stereo not drawn)	4	6.7	-5	-22	2147	12	1
O=C(Nc1cc(F)cc(F)c1)c1ccc(NCCCN2CCCCCC2)c([N+](=O)[O-])c1	4	6.0	-1	-2	3146	12	5
O=C(CSc1ncnc2sc3c(c12)CCCC3)NC1CCS(=O)(=O)C1 (stereo not drawn)	·	3.4	-2	-18	8425	9	8
O=C(Nc1ccon1)c1cccc(C(F)(F)F)c1	6	-2.9	-2	-23	11264	-11	-5
Cc1cc(Cl)c(S(=O)(=O)Nc2ccc3c(c2)OCCO3)cc1OCC(N)=O	-4	-0.2	1	-8	4650	·	·
COc1ccc(CNC(=O)C(CCSC)NS(=O)(=O)c2ccccc2F)cc1 (stereo not drawn)	-6	2.7	10	-19	5346	1	2
COc1ccc(-c2cc(N)n(S(=O)(=O)c3c(F)c(F)c(F)c(F)c3F)n2)cc1OC	-15	98*	95*	-18	16388*	5	-2
Cc1nn(C)c(C)c1CN(C)C(=O)c1cc2nc(-c3ccco3)cc(C(F)(F)F)n2n1	4	8.1	-8	-14	2829	15	15
Cc1cccc(C(=O)NC(=S)Nc2c(C)n(C)n(-c3ccccc3)c2=O)c1	-13	·	·	7	3927	·	·
O=C(COc1ccccc1)Nc1ccccc1N1CCN(c2ccccc2)CC1	1	-0.2	8	-54	5114	7	5
Cc1ccc(Cl)cc1NC(=O)C(NS(=O)(=O)c1cccs1)c1ccccc1 (stereo not drawn)	0	19	-7	-20	2483	7	5
CCOc1ccc(S(=O)(=O)Nc2ccc(S(=O)(=O)N3CCOCC3)cc2)cc1	-9	1.7	2	-33	2884	·	·
CCN(CC)CCNC(=O)c1ccc(NC(=O)c2ccc(S(=O)(=O)N3CCCCCC3)cc2)cc1	4	0.6	5	-30	4873	1	-1
CN(C)Cc1c(C(=O)NN=Cc2ccncc2)nnn1-c1nonc1N	·	-2.9	-4	·	·	-4	2
CN(C(=O)c1sc2nc(N3CCOCC3)c3c(c2c1N)CCCC3)c1ccccc1	-16	4.6	6	-6	4098	5	-3
C=CCOC(=O)c1[nH]c2c(c1C)C(=O)CC(c1ccco1)C2 (stereo not drawn)	37	6.0	9	·	·	·	·
Cc1ccccc1C1NC(c2ccccc2C)C([N+](=O)[O-])C(C)(C)C1[N+](=O)[O-] (stereo not drawn)	5	3.0	-3	-12	·	12	-1
COc1ccc(-c2oc3ncn(CCN4CCOCC4)c(=N)c3c2-c2ccc(OC)cc2)cc1	-1	5.8	-1	-25	10048	-2	11
CCOC(=O)c1c(C)[nH]c(C)c1S(=O)(=O)NCCN1CCN(c2ccccc2F)CC1	8	3.9	12	-17	4479	7	1
COc1ccccc1CNC(=O)/C=C/c1ccc(Br)o1	-1	-1.1	3	-10	4194	12	8
CCOC(=O)N=Nc1c(O)n(Cc2ccccc2)c2ccccc12	8	-4.9	-4	-11	2607	-8	-9
CN(C)CCNC(=O)CCn1nc(-c2ccc(Cl)cc2)ccc1=O	-6	3.0	2	-17	3762	-3	-4
O=C(CN1C2CCCC1CC(NC(=O)c1ccco1)C2)Nc1ccccc1C(F)(F)F (stereo not drawn)	-2	13	-3	-25	4030	-5	4
NNC(=O)CC12CC3CC(C1)CC(n1ncnn1)(C3)C2	-19	3.5	1	-74	2385	-5	-1
Cc1ccc(NS(=O)(=O)c2ccc(CCC(=O)N3CCCC3)cc2)cc1	2	8.5	0	-13	4627	1	-1
O=C(Nc1ccc(F)cc1)C1CCN(c2nnnn2-c2ccccc2)CC1	-1	5.8	-5	-16	19751*	5	9
COc1ccc(C(=O)OCCN2C(=O)c3ccccc3C2=O)cc1	-7	18	4	-29	11065	5	8
COc1ccc(CC(=O)Nc2nnc(CC(C)C)s2)cc1S(=O)(=O)N1CCOCC1	·	-0.7	3	-20	5677	-1	1

A second format for some results above:
molecule | BJeLR viability | RN4220 kill | Sa ugtP lethal | PrP 5UTR inh | Bead autofluor | Mtb hypoxia rep | Mtb hypoxia rep growth
CCOC(=O)N=Nc1c(O)n(Cc2ccccc2)c2ccccc12 | 8 | -4.9 | -4 | -11 | 2607 | -8 | -9
CN(C)CCNC(=O)CCn1nc(-c2ccc(Cl)cc2)ccc1=O | -6 | 3.0 | 2 | -17 | 3762 | -3 | -4
O=C(CN1C2CCCC1CC(NC(=O)c1ccco1)C2)Nc1ccccc1C(F)(F)F (stereo not drawn) | -2 | 13 | -3 | -25 | 4030 | -5 | 4
NNC(=O)CC12CC3CC(C1)CC(n1ncnn1)(C3)C2 | -19 | 3.5 | 1 | -74 | 2385 | -5 | -1
Cc1ccc(NS(=O)(=O)c2ccc(CCC(=O)N3CCCC3)cc2)cc1 | 2 | 8.5 | 0 | -13 | 4627 | 1 | -1
O=C(Nc1ccc(F)cc1)C1CCN(c2nnnn2-c2ccccc2)CC1 | -1 | 5.8 | -5 | -16 | 19751* | 5 | 9
COc1ccc(C(=O)OCCN2C(=O)c3ccccc3C2=O)cc1 | -7 | 18 | 4 | -29 | 11065 | 5 | 8

Other entries follow:
SMILES	BJeLR viability	RN4220 kill	Sa ugtP lethal	PrP 5UTR inh	Bead autofluor	Mtb hypoxia rep	Mtb hypoxia rep growth
COc1cccc(-c2ccc(=O)n(CC(=O)Nc3cc4c(cc3NC(C)=O)OCCO4)n2)c1	2	2.0	0	-5	21027*	-3	1
N#CC1=C(N)OC2=C(CC/C2=C\c2ccccc2Cl)C1c1ccccc1Cl (stereo not drawn)	·	-2.6	26	4	2971	12	17
C=CCN(C(=O)Nc1ccc(F)cc1)C1CC(=O)N(c2ccc(OC)cc2)C1=O (stereo not drawn)	·	0.3	3	-22	21431*	3	13
CCC(=O)N1c2ccccc2-c2nnc(SC)nc2OC1c1ccc(N(C)C)cc1 (stereo not drawn)	1	0.2	8	-24	5546	·	·
Cc1ccc(CNCC(O)(c2ccccc2)c2ccc(Cl)cc2)cc1 (stereo not drawn)	13	0.5	-27	-3	3000	-6	4
CC(C)C(=O)N1CCN(c2ccc(NC(=O)c3cccs3)cc2Cl)CC1	9	0.4	12	-45	4562	0	15
C=CCNC(=O)c1ccc([N+](=O)[O-])c(Cl)c1	-1	0.0	2	-15	3291	21	14
CCSC1=N/C(=C/c2ccsc2)C(=O)N1c1ccccc1	8	0.8	19	-2	2522	4	-2
CCSc1ncc(Cl)c(C(=O)Nc2sc3c(c2C(=O)NCc2cccnc2)CCCC3)n1	1	-3.9	-13	-22	8984	-4	-3
COc1ccc(C2CC2C(=NO)c2ccccn2)cc1 (stereo not drawn)	·	13	4	·	·	7	16
CC(C)CN1CCN(CC#Cc2ccccc2)CC1CCO (stereo not drawn)	2	4.7	16	-8	4629	6	11
CC1CCCC(C)N1/N=C/c1ccccc1F (stereo not drawn)	7	·	·	0	4149	·	·
COc1cc(-c2[nH]ncc2CN(C)Cc2cc(C)[nH]n2)cc(OC)c1OC	24	4.8	18	-33	4974	0	7
CCc1ccc(N2CC(C(=O)Nc3cc(C)ccc3F)CC2=O)cc1 (stereo not drawn)	-14	-1.8	4	-15	7085	1	-5
Cc1ccc(S(=O)(=O)N2CCN(S(=O)(=O)c3ccccc3Br)C2=O)cc1	·	1.2	0	4	3667	-1	4
Cc1c(NC(=O)C(C)Sc2nc3ccccc3c(=O)n2CCO)c(=O)n(-c2ccccc2)n1C (stereo not drawn)	5	6.7	-11	-16	21769*	1	15
O=C(O)c1ccc2c(c1)OCCO2	7	3.5	-4	-8	3445	1	-3
CCN1CCN(C(=O)COc2ccc3c(c2)C(=O)CC2(CCN(C(C)=O)CC2)O3)CC1	-3	-1.9	-4	-15	9822	-4	0
Cc1ccc(S(=O)(=O)N2CCN(C(=O)Cn3nc(C)c([N+](=O)[O-])c3C)CC2)c(C)c1	-7	-0.6	-2	-1	6242	1	4
COC(=O)c1cn(NC(=O)c2cccc(OC)c2)c(=O)c2ccccc12	5	3.6	0	3	9686	3	12
c1cnc2ncc3sccc3c2c1	0	5.0	1	-49	2224	-1	6
